Screening results deposited in PubChem by several laboratories.
HNF4A DNA FP = change in binding of human HNF4 alpha to DNA; HNF4a-FITC DNA binding, fluorescence polarization, 1 h; activity change, % at 10 µM; 360,000 compounds, 0.3% hits; in the data active = activity change above about 30%, passing the limit was not always enough;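 also: controls were the assay level and a saturating level of protein; the project sought stronger binding though the title names inhibitors; some compounds called inactive have numbers as strong as hits; positive values seem to mean higher polarization but the record does not say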
ALR H2O2 inh = inhibitors of human sulfhydryl oxidase ALR; purified ALR, DTT oxidation, H2O2 HRP-luminol luminescence; inhibition, % (concentration not given with the values); 290,000 compounds, 3.8% hits; AID 485317;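 active = mean and each replicate at 75% or more; inconclusive = only one of the two met; inactive = neither met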;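 also: stock transfer was 7.5 nL into about 7.5 µL; 0% = neutral wells and 100% = wells with inactivated enzyme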
Target sequence (P55789 whole entry, looked up): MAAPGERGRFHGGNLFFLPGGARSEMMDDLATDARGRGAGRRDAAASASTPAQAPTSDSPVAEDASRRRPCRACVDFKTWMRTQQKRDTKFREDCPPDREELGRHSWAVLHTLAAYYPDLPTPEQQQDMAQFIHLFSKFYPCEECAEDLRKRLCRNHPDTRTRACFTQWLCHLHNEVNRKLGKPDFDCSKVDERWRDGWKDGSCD
rRNA inh HTS = inhibits bacterial ribosomal RNA function over humanized ribosomes. E. coli WT GFP vs humanized-ribosome RFP mutants, fluorescence, 24 h; hits give low values; DMSO median 0, no signal -100. GFP signal change (wild-type ribosome), % (concentration not given with the values). 350,000 compounds, 1.6% hits;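 active = significant combined selectivity score with lowered wild-type GFP, culture density cut under 30%, mutant RFP and density less affected; inactive = any of these conditions unmet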; also: one replicate is shown; some compounds called inactive have numbers as strong as hits
MLL AF4-AF9 inh = blocks AF4 peptide binding to human AF9; inhibition, % at 10 µM; AlphaScreen, biotin-AF4 peptide binding to FLAG-AF9; AID 651704; 350,000 compounds, 0.47% hits; P42568;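 active = every replicate reaching a set inhibition limit, whatever the replicate mean, cut at about 25% in these data; inconclusive = mean inhibition reaches that limit but some replicates miss it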;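 also: 0% = plate neutral control median and 100% = total signal loss; the record names both 10 and 1 µM as test concentration; the first replicate is given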
Target sequence (P42568 whole entry, looked up): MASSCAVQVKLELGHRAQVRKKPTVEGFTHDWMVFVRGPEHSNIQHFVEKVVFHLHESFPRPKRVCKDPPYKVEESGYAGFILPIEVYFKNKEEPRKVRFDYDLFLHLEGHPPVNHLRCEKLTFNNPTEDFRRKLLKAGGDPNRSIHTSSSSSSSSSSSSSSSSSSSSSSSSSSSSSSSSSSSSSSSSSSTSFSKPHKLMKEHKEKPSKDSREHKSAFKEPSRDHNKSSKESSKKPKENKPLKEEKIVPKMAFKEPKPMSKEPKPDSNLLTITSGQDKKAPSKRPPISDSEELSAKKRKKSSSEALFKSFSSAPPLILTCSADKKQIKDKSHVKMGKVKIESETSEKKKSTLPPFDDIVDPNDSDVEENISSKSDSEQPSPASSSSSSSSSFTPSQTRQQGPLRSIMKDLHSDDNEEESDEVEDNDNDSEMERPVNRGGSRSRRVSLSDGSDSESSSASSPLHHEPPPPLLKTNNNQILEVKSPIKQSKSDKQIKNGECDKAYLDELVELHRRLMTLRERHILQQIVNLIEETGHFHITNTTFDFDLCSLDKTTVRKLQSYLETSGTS
FGF22 binding = binders of recombinant human FGF22 by thermal shift | Q9HCT0 | SYPRO orange fluorescence; percent of sucrose octasulfate shift, DMSO zero | 340,000 compounds, 1.5% hits | calls only at 9.99 µM;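 active = melting point raised past a set limit in the mean and every replicate; inconclusive = no clear call; three in four hits are not shown here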
Target sequence (Q9HCT0 whole entry, looked up): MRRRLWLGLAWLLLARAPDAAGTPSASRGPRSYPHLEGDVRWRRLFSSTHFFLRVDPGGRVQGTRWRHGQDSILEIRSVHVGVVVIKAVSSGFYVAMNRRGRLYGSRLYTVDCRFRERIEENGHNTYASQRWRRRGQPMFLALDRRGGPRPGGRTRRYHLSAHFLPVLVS
Vif TR-FRET = HIV-1 Vif–A3G interaction blockers – biochemical, TR-FRET, GST-Vif 1-94, biotin-A3G peptide, dose response retest, primary screen (AID 1117319). one-dose inhibition, %; IC50 in µM for titrated hits. TR-FRET GST-Vif / biotin-A3G peptide binding; higher % means a stronger effect; test concentration not given here; strong numbers were not always called active. 260,000 compounds, 0.57% hits;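 active = above the screen mean plus three standard deviations and confirmed in dose response; inconclusive = results disagree or hit not tested in dose response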;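 also: Vif residues 1-94 fused to GST binding biotinylated APOBEC3G peptide 110-148; 0% = full assay without inhibitor and 100% = GST in place of GST-Vif; retest series ran down from 100 µM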
E coli growth = inhibitors of Escherichia coli growth. OD600, 23 h; hits give low values. OD600 absorbance (test concentration not listed). 330,000 compounds, 0.21% hits. AID 1053175;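 active = OD600 absorbance below the run mean of sample wells minus 3.6 SD, in any replicate, cut at about 0.56 in these data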;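 also: stock transfer was 300 nL into about 60 µL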
rRNA inh HTS OD600 = recorded beside rRNA inh HTS, whose call it bears; OD600 change, %; measured here: OD600 growth;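 optical density of the mix in the first replicate; 0 = DMSO median and -100 = no signal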
rRNA inh HTS RFP = second read-out of rRNA inh HTS, no call of its own (marks repeat the call); RFP signal change, %; measured here: RFP humanized mutant strains;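 first replicate; 0 = DMSO median and -100 = no signal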
* hit, by the source's call; i = inactive; ? = inconclusive; . = not tested or not shown; & = joins results of further samples. The list is partial; count on the stated rates, not on these rows.

cpd	SMILES	HNF4A DNA FP	ALR H2O2 inh	rRNA inh HTS	rRNA inh HTS OD600	rRNA inh HTS RFP	MLL AF4-AF9 inh	FGF22 binding	Vif TR-FRET	E coli growth
1	CN(CC(=O)Nc1ccc(F)c(F)c1F)C(=O)Cn1cnc2c1c(=O)n(C)c(=O)n2C	-1.3	-6	3	2	0.0	1.5	i	.	0.7
2	O=C(c1cccnc1)N1CC(=O)N2[C@H](CO)[C@H](c3ccc(-c4ccccc4F)cc3)[C@@H]2C1	.	.	3	14	0.8	0.4	i	.	.
3	C[C@@H]1CCCCO[C@@H](CN(C)S(=O)(=O)c2cn(C)cn2)[C@@H](C)CN([C@@H](C)CO)C(=O)c2cc(NS(=O)(=O)c3cn(C)cn3)ccc2O1	.	.	1	9	-0.4	-10	i	.	.
4	CCOc1ccc(NC(=O)NCc2ccco2)cc1	0.8	3	15	11	0.4	-5.2	i	21%	0.68
5	O=C(CCC1CCCCC1)NNC(=O)c1cnccn1	0.0	-5	-32	-38	-10	4.2	i	.	0.63
6	O=C(C1CCC(CNc2c(N3CCCCC3)c(=O)c2=O)CC1)N1CCCCC1 (centres undefined)	1.5	-6	3	-2	3.4	-16	i	-2%	0.74
7	Cc1c(C(=O)N2CCCCC2)c(S(=O)(=O)N(C)Cc2ccco2)c(C)n1C	-3.4	-2	0	6	-3.1	2.7	i	-5%	0.72
8	C[C@@H]1CN([C@@H](C)CO)C(=O)c2cc(NC(=O)Cc3cn(C)c4ccccc34)ccc2O[C@H]1CN(C)C(=O)Nc1ccc(F)cc1	.	.	3	-3	1.3	2.4	i	.	.
9	CCCc1cc(=O)oc2c(CN3CCOCC3)c(O)ccc12	-1.2	12	.	.	.	.	.	0%	0.66
10	COc1ccccc1COC(=O)c1cccc(S(=O)(=O)N2CCCC2)c1	1.0	.	2	-9	4.9	-1.5	i	1%	0.65
11	N#C/C(=C\c1ccco1)C(=O)Nn1cnnc1	0.3	.	6	19	-1.8	-0.5	i	3%	0.7
12	CCC(=O)Nc1ccc2c(c1)C(=O)N(C)C[C@@H](OC)[C@H](C)CN(Cc1ccncc1)[C@@H](C)CO2	.	.	1	2	-0.2	-3.1	i	.	.
13	CC(=O)Nc1ccc(-c2ccnc3c2CC(C)(C(=O)Nc2cccc(C(C)=O)c2)O3)cc1 (centres undefined)	2.0	.	-4	-10	-0.6	3.2	i	.	.
14	CC12CN3CCN(CC(C3)C1(O)CN1CCCCC1)C2 (centres undefined)	6.1	2	.	.	.	.	.	-2%	0.7
15	O=C1NC[C@H](Cc2ccccc2)N(C[C@H]2CCCN2C[C@H](Cc2ccccc2)N2C[C@H](Cc3ccc(O)cc3)N(CCc3ccccc3)C(=O)C2=O)C1=O	-2.1	.	-12	-24	6.6	-1.1	i	-8%	.
16	O=S(CC(O)COCc1ccc(Cl)cc1)c1ccccn1 (centres undefined)	1.5	15	.	.	.	.	.	4%	0.72
17	O=C(CCCOC(=O)c1ccc(O)cc1O)c1ccccc1	-10	2	-31	-43	-12	0.9	i	-16%	0.65
18	CC(O)(CS(=O)(=O)Cc1cccc(C(F)(F)F)c1)C(=O)Nc1cccc(C(F)(F)F)c1 (centres undefined)	-3.5	-4	.	.	.	.	.	-1%	0.69
19	Cc1ccc(S(=O)(=O)c2cc3c(=O)n4ccccc4nc3n(C3CCCCC3)c2=N)cc1	-1.0	.	14	14	2.3	0.6	i	-8%	0.72
20	Cn1c(=O)c(-c2ccccc2)cc2ccccc21	1.3	.	-14	-24	-7.1	4.9	i	-6%	0.71
21	CC(C)(C)c1ccc(-c2noc(CCC(=O)NCC3CCCO3)n2)cc1 (centres undefined)	-1.0	-1	.	.	.	.	.	5%	0.69
22	O=c1c(-c2cccs2)nc2ccccc2n1C(c1ccccn1)c1nc2ccccc2[nH]1 (centres undefined)	1.5	.	-4	1	-2.0	6.5	i	.	.
23	COc1ccc(NC(=O)Nc2nnc(-c3cccs3)s2)cc1	-4.3	.	9	7	-2.8	-14	i	1%	0.71
24	O=C(NCC1CCCO1)c1ccc(NC(=O)c2cccc(Br)c2)cc1 (centres undefined)	1.2	-5	12	12	1.5	0.3	i	.	0.71
25	CCOc1cc(/C=N/N=C(/N)c2nonc2N)cc(Br)c1OCc1ccc(Cl)cc1	2.1	-4	.	.	.	.	.	5%	.
26	COc1ccc(NC(=O)N(C)C[C@@H]2OCCCC[C@@H](C)Oc3ccc(NC(=O)Nc4ccc(C(F)(F)F)cc4)cc3C(=O)N([C@H](C)CO)C[C@H]2C)cc1	.	.	3	3	-0.5	0.0	i	.	.
27	COC(=O)C1=C(C)N(Cc2cccc(C(F)(F)F)c2)C(=NCc2ccc(OC)cc2)NC1c1ccc(Cl)cc1 (centres undefined)	.	.	-50	-66	-6.3	8.9	.	.	.
28	CCCCn1nnnc1C1(C)CCC(=O)N1Cc1cccc(F)c1 (centres undefined)	-3.7	.	1	16	0.5	-5.2	i	.	.
29	C[C@H](CO)N1C[C@H](C)[C@@H](CN(C)C(=O)c2cccnc2)Oc2ncc(-c3ccc(C(=O)N(C)C)cc3)cc2C1=O	.	.	2	0	-1.2	-2.9	i	.	.
30	Cc1cc(C)n(-c2cc(C)c(C)cc2Br)n1	1.8	-24	.	.	.	.	.	0%	0.69
31	CCn1c(SC)nnc1-c1c[nH]c2ccccc12	3.5	.	-3	7	-2.0	2.7	i	-9%	0.75
32	O=C(CN1CCC(n2nnc3cc(C(F)(F)F)ccc32)CC1)Nc1ccc2c(c1)CCC2	2.2	-6	.	.	.	.	.	10%	0.66
33	Cc1ccc(C)c(OCCC(=O)OCC(=O)Nc2cc(S(=O)(=O)N3CCOCC3)ccc2C)c1	-1.9	-1	-7	-6	4.3	0.2	i	-3%	0.67
34	O=C(c1ccc(CS(=O)Cc2ccccc2Cl)o1)N1CCN(c2cccc(Cl)c2)CC1 (centres undefined)	0.0	99*	-2	-1	-1.6	1.5	i	.	0.7
35	CCOc1cccc(NC(=O)Cn2nc(-c3ccc4c(c3)OCCO4)ccc2=O)c1	0.4	-6	.	.	.	.	.	-25%	0.69
36	C[C@H](CO)N1C[C@H](C)[C@H](CN(C)S(=O)(=O)c2ccc(Oc3ccccc3)cc2)OCc2cn(nn2)CCCC1=O	.	.	-1	5	-2.6	-0.7	i	.	.
37	CC(=O)Nc1nc(C)c(-c2nc3ccc([N+](=O)[O-])cc3[nH]2)s1	-1.9	-8	-8	-4	0.3	-0.2	i	-7%	0.63
38	C[C@@H]1CN([C@@H](C)CO)C(=O)CCCn2nncc2CO[C@@H]1CN(C)C(=O)c1cc(-c2ccccc2)on1	3.1	.	-1&2	3&-1	-1.4&-0.4	-1.6&0.2&0.4	i	3%	.
39	COc1ccc(NC(=O)CSc2nnc(N)s2)cc1S(=O)(=O)N1CCCCC1	3.7	4	2	5	0.9	-8.9	i	.	0.72
40	Cc1nnc(NC(=O)CSc2nc(C(C)C)nc3ccccc23)s1	0.0	70	7	6	2.5	3.0	i	-7%	0.68
41	O=C(O)C12C3CCC(O3)C1(C(=O)O)C1CCC2O1 (centres undefined)	0.4	.	12	15	0.8	-2.3	i	-3%	.
42	CC(C)c1ccc(C(C(=O)NC(C)(C)C)N(C(=O)CNC(=O)c2ccco2)c2cccnc2)cc1 (centres undefined)	-2.0	7	.	.	.	.	.	-3%	0.7
43	CCCN(C)C[C@H]1Oc2ncc(C#CCN(C)C)cc2C(=O)N([C@H](C)CO)C[C@H]1C	.	.	2	-9	-1.3	6.1	i	.	.
44	Cc1cc(C)n(-c2nc3ccccc3c(=O)n2OC2CCCCC2)n1	-0.1	.	.	.	.	.	.	-1%	0.72
45	O=C(Cc1ccccc1)N1CC[C@H]2[C@H](CO)Nc3ccc(-c4ccccc4)cc3[C@H]21	.	.	-7	-55	28	-0.6	i	.	.
46	C[C@@H]1CN([C@H](C)CO)C(=O)c2cc(NC(=O)NC3CCCCC3)ccc2O[C@@H]1CN(C)C(=O)Nc1cccc2ccccc12	.	.	1	3	1.4	-3.9	i	.	.
47	CCCNC(=O)N1CC2(CN(C(=O)CC3CC3)C2)c2c(n(C)c3cc(OC)ccc23)[C@@H]1CO	.	.	0	1	0.3	-2.2	i	.	.
48	CS(=O)(=NS(=O)(=O)c1ccc(Cl)cc1)c1ccccc1 (centres undefined)	2.5	-2	0	6	-2.2	-3.7	i	8%	0.65
49	CCOc1ccccc1Nc1ncnc2ccccc12	-1.5	-10	.	.	.	.	.	6%	0.72
50	CC(=O)Nc1ccc(NC(=O)C2CCCN2S(=O)(=O)c2cccc3nsnc23)cc1 (centres undefined)	-0.1	-11	9	8	1.3	-2.9	i	0%	0.68

Compounds listed so far containing a tert-butyl group:
cpd	SMILES	HNF4A DNA FP	ALR H2O2 inh	rRNA inh HTS	rRNA inh HTS OD600	rRNA inh HTS RFP	MLL AF4-AF9 inh	FGF22 binding	Vif TR-FRET	E coli growth
21	CC(C)(C)c1ccc(-c2noc(CCC(=O)NCC3CCCO3)n2)cc1 (centres undefined)	-1.0	-1	.	.	.	.	.	5%	0.69
42	CC(C)c1ccc(C(C(=O)NC(C)(C)C)N(C(=O)CNC(=O)c2ccco2)c2cccnc2)cc1 (centres undefined)	-2.0	7	.	.	.	.	.	-3%	0.7

Next part.
cpd	SMILES	HNF4A DNA FP	ALR H2O2 inh	rRNA inh HTS	rRNA inh HTS OD600	rRNA inh HTS RFP	MLL AF4-AF9 inh	FGF22 binding	Vif TR-FRET	E coli growth
51	O=C(NCC1CC1)c1ccc(-n2ccnc2)c2ccoc12	-1.6	.	-1	1	3.7	-1.9	i	.	.
52	COc1ccc(CCNC(=O)CC(NS(=O)(=O)c2ccc(NC(C)=O)cc2)C(C)C)cc1OC (centres undefined)	-0.8	13	.	.	.	.	.	4%&-11%	0.72
53	O=C(CSc1nncs1)Nc1ccc(N2CCCCC2)cc1	-1.7	98*	1	2	3.5	0.6	i	.	0.69
54	COc1cc(C=NNc2ccccc2[N+](=O)[O-])cc(OC)c1OC	-2.7	.	3	10	-4.5	4.1	.	-2%	.
55	CCC1CCCCN1C(=O)Cn1c(C(=O)OC)cc2sc(Cl)cc21 (centres undefined)	-3.0	-3	.	.	.	.	.	-1%	0.72
56	CC(C)N1CC2=C(C1=O)C(c1ccc(O)cc1)NC(=O)N2C (centres undefined)	-2.7	4	4	11	3.5	-1.4	i	4%	0.67
57	CC(NC(=O)c1cc(S(=O)(=O)N2CCOCC2)ccc1N1CCCC1)c1ccc(Cl)c(Cl)c1 (centres undefined)	-3.1	-2	1	-6	5.4	-35	i	-5%	0.73
58	COc1ccc(C2CC(c3ccccc3OC(=O)/C=C/c3ccccc3)=NN2C(C)=O)cc1 (centres undefined)	0.3	-4	-3	10	3.6	.	i	-7%	0.67
59	C=CCn1c(-c2cccc(Cl)c2)n[nH]c1=S	-1.7	?	.	.	.	.	.	-13%	0.75
60	Cc1ccc(NC(=O)CSc2ncn[nH]2)cc1S(=O)(=O)N1CCOCC1	-1.3	22	5	5	-2.2	0.8	i	-1%	0.66
61	CCN(CC)CCNC(=O)/C(=C/c1cn(C)c2ccccc12)NC(=O)c1ccc(OC)c(OC)c1	-5.6	24	6	-6	3.2	-0.6	i	-8%	0.68
62	N#C[C@@H]1[C@@H](c2ccccc2)[C@H](CO)N1C(=O)CN1CCOCC1	.	.	1	11	2.5	-2.3	i	.	.
63	CCN(CC)c1ccc(N/C(N)=N/c2nc(C(F)(F)F)cc(=O)[nH]2)cc1	1.4	-11	6	0	3.5	-0.1	.	2%	0.68
64	CCC(CC)N1CCN(C(=O)c2cc(OC)c(OC)c(OC)c2)CC1	-2.1	-7	3	12	4.0	0.1	i	.	0.64
